High-throughput results as filed in PubChem.
YopH PTP inh: blocks Yersinia enterocolitica YopH tyrosine phosphatase; inhibition, %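 (about 10 µM by stock and volumes)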; fluorescence Ex485/Em525; AID 898; hit rate 0.16% among 140,000;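 active = inhibition of 50% or more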;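 also: controls were vehicle for no effect and minimum signal wells for full effect; inactives centre near -20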
Arbovirus inh: antivirals against arbovirus infection. arbovirus infection cell-based antiviral screen. inhibition, % at 10 µM. hit rate 0.37% among 200,000;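 active = inhibition from about 30%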;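 also: bluetongue infection of BSR cells; cell survival read as ATP light after 72 h; 0% = infected wells without compound and 100% = uninfected wells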
RecA splice inh: inhibitors of M. tuberculosis RecA intein splicing; inhibition, %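 (about 9 µM by stock and volumes)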; hit rate 0.75% among 290,000; cell-free RecA intein splicing, fluorescence; in the data active = inhibition above about 30%; inconclusive = no clear call, values can overlap the other calls;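 also: 0% = vehicle wells and 100% = reference inhibitor control wells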
Target sequence (P9WHJ3 whole entry, looked up, canonical isoform): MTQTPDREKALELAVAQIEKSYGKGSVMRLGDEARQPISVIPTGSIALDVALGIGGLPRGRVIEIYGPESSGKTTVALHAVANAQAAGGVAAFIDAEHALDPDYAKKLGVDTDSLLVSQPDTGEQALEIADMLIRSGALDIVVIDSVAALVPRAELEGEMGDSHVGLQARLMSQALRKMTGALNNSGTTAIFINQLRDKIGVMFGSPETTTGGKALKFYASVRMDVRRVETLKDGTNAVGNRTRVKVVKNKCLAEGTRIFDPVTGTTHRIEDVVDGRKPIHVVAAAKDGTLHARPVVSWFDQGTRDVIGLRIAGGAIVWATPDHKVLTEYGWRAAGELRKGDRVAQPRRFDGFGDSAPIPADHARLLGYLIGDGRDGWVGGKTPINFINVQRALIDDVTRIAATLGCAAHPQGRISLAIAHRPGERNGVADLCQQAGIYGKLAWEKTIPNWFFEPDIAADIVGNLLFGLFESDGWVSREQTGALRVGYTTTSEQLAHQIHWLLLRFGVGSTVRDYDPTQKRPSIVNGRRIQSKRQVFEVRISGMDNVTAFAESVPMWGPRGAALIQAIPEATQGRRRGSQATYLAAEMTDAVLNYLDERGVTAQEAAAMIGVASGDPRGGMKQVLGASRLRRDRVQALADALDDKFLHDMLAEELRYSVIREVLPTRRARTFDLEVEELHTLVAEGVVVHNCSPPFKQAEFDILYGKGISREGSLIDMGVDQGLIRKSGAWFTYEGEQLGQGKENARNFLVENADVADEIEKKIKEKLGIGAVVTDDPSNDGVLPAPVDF
Mtb bLac sens: beta-lactam sensitization of Mtb H37Rv. M. tuberculosis H37Rv growth with meropenem, percent inhibition; hits of this screen are not shown here. inhibition, % at 25 µM. hit rate 0.27% among 330,000. AID 434955;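 active = about 74% or more and at least 40 points above the plate without the antibiotic, then above 30% in a dose series; inconclusive = first-round hits that could not be retested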;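 also: growth measured after seven days incubation then overnight dye step; 0% = bacteria only wells and 100% = bacteria with antibiotic; twin plates without the antibiotic show which effects depend on it; some results filed as inactive read as strong as hits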
Mtb growth: M. tuberculosis H37Rv growth inhibitors, H37Rv strain (AID 1626); one-dose inhibition, % at 10 µM; IC50 in µM for titrated hits; M. tuberculosis H37Rv growth inhibition; higher % means a stronger effect; hit rate 0.95% among 220,000;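 active = confirmed in a dose series; inconclusive = inhibition above 80% but not taken into the dose series; inactive = below 80% or under 30% at every dose of the series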;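 also: bacteria incubated seven days before Alamar blue readout; 0% = bacteria only wells and 100% = bacteria with antibiotic wells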
Arbovirus inh repeat: further read-out of Arbovirus inh, marked with its call; inhibition, %; measured here: 10K subset replicate screen; many hits read low in the repeat;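 first of two repeat runs on a subset; 0% = infected and 100% = uninfected wells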
An asterisk follows results filed as active; ? = inconclusive; / = not tested or not shown. Some of the compounds tested, so the mix of outcomes need not match the whole.

SMILES	YopH PTP inh	Arbovirus inh	RecA splice inh	Mtb bLac sens	Mtb growth	others
COc1ccccc1C1C2=C(CC(C)(C)CC2=O)N(CC(=O)O)C2=C1C(=O)CC(C)(C)C2	/	/	-348.8	-1.2	/
CC(C)CC(=O)Nc1nnc(S(=O)(=O)N2CCc3ccccc32)s1	/	/	-3.0	3.7	/
CN(C)c1ccc(C(=O)Nc2ccc(CN3CCS(=O)(=O)CC3)cc2)cc1	/	/	0.2	-11.6	-5.1%
Cc1ccccc1OCCCn1c(CO)nc2ccccc21	/	6.4	2.5	5.7	3.6%
FC(F)(F)c1cccc(-c2nnc(-c3ccccc3)c(N3CCOCC3)n2)c1	-42.4	2.7	1.1	12.4	-1.7%
Cc1cccc(NC(=S)NNC(=O)c2ccccc2OC(F)F)c1	-24.7	-19.2	0.3	/	/
Cc1ccc2c(c1)C(=C(C#N)C#N)C(=O)N2CCN1CCOCC1	/	/	1.9	-6.3	-1.9%
CN1c2ccccc2N(C)C1(C)c1cccc2ccccc12	-45.1	-25.6	12.9	58.4	4.1%
O=C(Nc1ccc(S(=O)(=O)C(F)F)cc1)c1cccc(S(=O)(=O)N2CCOCC2)c1	4.1	-5.5	-0.3	-2.2	2.7%
COc1ccc(Cn2c(SCc3ccccc3C)nc3cc(OC)c(OC)cc3c2=N)cc1	-54.9	-35.9	15.2	100.1	2.24µM*
Cn1c(=O)c([N+](=O)[O-])c(NCc2ccccc2Cl)c2ccccc21	/	/	3.7	-2.5	4.9%
O=C(NC(=O)c1cccc(Cl)c1)OC[C@@H]1CCCN2CCCCC12 (stereo partly drawn)	-2.9	-0.8	0.5	-0.7	7.4%
CCc1nnc(NC(=O)C2COc3ccccc3O2)s1 (stereo not drawn)	-46.4	5.3	-1.7	-6.3	-13.1%
COc1ccc(CCNC(=O)c2ccncc2)cc1OC	-3.3	-2.9	-3.0	-5.1	-0.4%
Cc1noc(C)c1COC(=O)COc1ccc(C#N)cc1	/	2.6	-3.0	4.5	3.4%
CCC1CCCCN1S(=O)(=O)c1ccc(S(=O)(=O)N(Cc2ccccn2)CC2CCCO2)cc1 (stereo not drawn)	-3.6	-2.8	2.1	7.4	-4.6%
CC(C)(C(=O)c1ccccc1)/[N+]([O-])=C/c1ccccc1F	-40.0	/	-5.8	?	-1.8%
Cc1ccn(-c2n[nH]c(C)c2[N+](=O)[O-])n1	/	5.1	-0.5	8.3	-1.7%
COc1ccc(C(CNC(=O)c2oc3ccc(Br)cc3c2C)N2CCCCC2)cc1 (stereo not drawn)	/	20.3	-2.1	98.5	7.6%
O=C(NCc1cn2ccccc2n1)c1ccco1	-42.4	11.6	2.4	-6.0	1.8%
COc1ccccc1/C=C/C=N/N1CCN(Cc2ccccc2)CC1	-5.4	-6.0	1.5	-1.1	1.4%
COc1cc(/C=C(/C#N)c2nc3ccccc3[nH]2)ccc1OCc1ccc(C(=O)O)o1	6.1	0.5	-3.3	47.5	-1.1%
N#Cc1cc(C#N)c(SCC(=O)NCC2CCCO2)nc1N (stereo not drawn)	/	/	-1.4	-0.5	/
CCCOc1ccc(-c2c(C(=O)N/N=C(\C)c3ccncc3)nnn2-c2nonc2N)cc1	/	/	-0.2	-0.8	/
CCOC(=O)C1(CCCc2ccccc2)CCN(C(=O)CN2C(=O)CSC2=O)CC1	/	4.9	3.5	3.0	0.5%
COC(=O)c1cccc(NC(=O)c2ccc(S(=O)(=O)N3CCN(C)CC3)cc2)c1	-22.0	-0.8	0.1	0.0	3.1%
CCN1C(=O)C(CC(=O)Nc2c(C)cccc2C)Nc2cc(S(=O)(=O)N(C)C)ccc21 (stereo not drawn)	/	4.9	-6.4	-6.6	5.3%
NS(=O)(=O)c1ccc(NC(=S)N2CCN(c3ccccc3)CC2)cc1	-2.2	4.6	-1.7	5.4	-4.4%
Cn1cc(SCC(=O)Nc2nc3ccccc3s2)c2ccccc21	29.4	-2.1	10.4	12.7	-3.1%
O=C(Oc1ccc(NC(=O)c2cc3c(cc2Br)OCO3)cc1)c1ccccc1	/	/	2.3	0.4	0.8%
CC(C)C(NS(=O)(=O)c1cccc2nsnc12)C(=O)N1CCn2c1nc1ccccc12 (stereo not drawn)	-0.7	-1.9	0.3	6.4	1.0%
Cc1ccc(NC(=O)N2CCC(c3nc4c(nnn4Cc4cccc(Cl)c4)c(=O)[nH]3)CC2)cc1	5.1	-32.2	14.0	99.9	5.13µM*
Cc1ccc(C2=CSC3=NNC4(CCCCC4)NN23)cc1	/	-28.5	-4.7	-3.8	4.8%
O=C(CSc1nnc2ccccn12)c1ccc2c(c1)OCCO2	-24.3	-0.9	0.1	-8.6	-3.5%
O=C(NNC(=O)c1ccccc1O)c1cc2ccccc2o1	/	/	16.4	-8.0	/
COC(=O)CC1=C(C(=O)OC)C(c2cccc(OCC(N)=O)c2)C(C#N)=C(N)O1 (stereo not drawn)	-38.5	-3.1	0.7	-3.8	2.0%
O=C(CC1Sc2ccccc2NC1=O)NNC(=O)Nc1ccc(Cl)cc1 (stereo not drawn)	/	/	-0.1	1.8	-5.4%
O=C(COC(=O)c1cccc(O)c1)c1ccccc1	/	/	0.2	3.5	/
COC(C[C@@H]1O[C@@H]1C(=O)COCc1ccccc1)OC	/	/	3.5	/	-10.6%
CC1CCC(=NNC(=O)Cc2ccccc2)CC1 (stereo not drawn)	-2.0	4.3	1.4	-0.9	1.5%
O=C(NCc1ccco1)c1cc2sccc2n1Cc1ccc(F)cc1	-47.2	-7.2	8.5	9.7	14.0%
COc1ccccc1N1CCN(C(=O)c2sc3nc(-c4ccc(F)cc4)cn3c2C)CC1	-24.4	-8.2	9.0	11.9	/	Arbovirus inh repeat=-29.5
C=CCN1C(=O)CN=C1NCc1ccccc1	-48.3	1.0	-0.6	-3.5	-13.2%
Cc1ccc(Nc2nc3ccccc3o2)cc1F	-12.8	-6.2	-5.3	-6.1	3.4%
Cc1cc(OCC(=O)NC(C)(C)C)ccc1Cl	-25.6	-6.7	-0.5	-0.9	-9.8%
Cc1ccc2[nH]cc(CCNC(=O)Nc3ccccc3)c2c1	-4.9	5.7	2.6	?	-0.6%
CCCNC(=O)c1c(O)c2cccc3c2n(c1=O)CCC3	/	/	-0.1	1.8	/
CCCn1c(NC(=O)c2ccccc2)nc2ccccc21	-11.3	-16.3	11.3	5.1	3.89µM*
O=C(c1cc2cc(Br)ccc2o1)N1CCCC1	/	-2.2	0.4	7.7	6.8%
Cc1c(C)c2c(OCC(=O)N3CCC(C(=O)NCC(C)C)CC3)cc3c(c2oc1=O)CCC(C)(C)O3	/	/	-0.2	-4.1	/
O=C(Nn1c(SCc2ccc([N+](=O)[O-])cc2)nc2ccccc2c1=O)c1ccc(F)cc1	-21.5	1.8	1.4	-2.3	1.9%
Cc1ccc(CNC(=O)CCS(=O)(=O)Cc2ccc(C)cc2)cc1	/	/	-3.4	-2.1	/
C/C(=N\NC(=O)COc1cccc(Cl)c1)c1ccc2c(c1)OCCO2	-30.0	-5.1	-1.7	6.2	4.5%
CCN(c1ccc(C)c(C)c1)S(=O)(=O)c1ccc2c(c1)CCN2C(=O)CCC(=O)O	-24.6	-5.2	0.6	0.0	0.5%
CC(=O)c1cccc(NC(=O)C2CCCN(S(C)(=O)=O)C2)c1 (stereo not drawn)	-11.6	-3.5	0.4	1.9	-1.1%
N#Cc1ccc(C23CC4CC(CC(C4)C2)C3)[nH]c1=O	-42.6	1.4	1.2	7.6	3.7%
C/C(=N\Nc1nccnc1Cl)c1ccc(F)cc1	/	-4.6	0.3	13.7	1.3%
COc1cc(NC(=O)COC(=O)CSc2ccc3ccccc3c2)c(C)cc1[N+](=O)[O-]	-13.7	10.6	5.0	3.3	-2.6%
O=C(N/N=C/c1ccccn1)c1cc([N+](=O)[O-])cc([N+](=O)[O-])c1	/	-2.0	-1.6	34.6	4.9%
CCc1c(C)sc(NC(=O)OC)c1C(=O)N1CCOCC1	-16.9	5.7	3.1	0.4	-7.3%

(list continues)
SMILES	YopH PTP inh	Arbovirus inh	RecA splice inh	Mtb bLac sens	Mtb growth	others
O=C(CNC(=O)c1cccc(Br)c1)N/N=C/c1cc(Br)cc(Br)c1O	/	-4.4	2.3	42.5	-2.5%
Cc1ccc(NC(=O)COC(=O)/C=C/c2ccccc2)cc1S(=O)(=O)N1CCOCC1	/	5.1	-2.5	2.7	1.2%
Cc1c(/C=N\NC(=O)c2csc3ccccc23)cnn1C	-30.6	-11.7	0.3	21.5	2.8%
COc1ccc(/C=C2\SC(=NCc3ccccc3)NC2=O)cc1	-19.0	-1.2	2.4	-2.5	0.6%
COc1ccc(N(C(=O)Cn2nnc(-c3ccc(Cl)cc3)n2)C(C(=O)NCC2CCCO2)c2ccc(C)cc2)cc1 (stereo not drawn)	-47.0	-10.1	-2.2	1.4	-10.6%
Cc1ccc(NC(=O)NCC(c2cccnc2)N2CCOCC2)cc1 (stereo not drawn)	-15.2	5.2	0.0	6.0	-4.3%
CCOc1ccc(/C=N/OCC(=O)Nc2cc(S(=O)(=O)N3CCOCC3)ccc2OC)cc1	/	/	-0.1	-2.5	/
COc1cccc(N2CCN(C(=O)c3ccc(CS(=O)Cc4ccc(Cl)cc4)o3)CC2)c1 (stereo not drawn)	/	/	0.0	6.8	/
Cc1ccc(-c2csc3ncn(CC#N)c(=O)c23)cc1	/	8.4	4.9	2.5	-3.9%
COC1=CC(=O)C(O)=C(CCCCCCC/C=C/CCCCCCCC2=C(O)C(=O)C=C(OC)C2=O)C1=O	/	/	75.8*	-1.2	-4.9%
O=C(CCCc1c[nH]c2ccccc12)NCc1ccc2c(c1)OCO2	0.6	-8.5	1.9	2.9	12.8%
CN(c1ccc(OCC(=O)N2CCCCC2)cc1)S(=O)(=O)c1cccs1	-37.0	5.4	0.1	-15.7	4.5%
CSCc1ccc(C(=O)N2CCCC(Nc3ccc4c(c3)OCCO4)C2)o1 (stereo not drawn)	/	/	-5.9	-0.6	/
COc1ccc(NS(=O)(=O)c2cc(NC(=O)CC(=O)c3ccc([N+](=O)[O-])cc3)ccc2C)cc1	/	2.9	6.9	23.1	-10.8%
COc1c(O)cc2c(c1O)C(=O)CC(c1ccccc1)O2 (stereo not drawn)	/	10.9	-1.6	/	5.9%

Already shown: entries from further up.
SMILES	YopH PTP inh	Arbovirus inh	RecA splice inh	Mtb bLac sens	Mtb growth	others
COC(=O)CC1=C(C(=O)OC)C(c2cccc(OCC(N)=O)c2)C(C#N)=C(N)O1 (stereo not drawn)	-38.5	-3.1	0.7	-3.8	2.0%
O=C(CC1Sc2ccccc2NC1=O)NNC(=O)Nc1ccc(Cl)cc1 (stereo not drawn)	/	/	-0.1	1.8	-5.4%
O=C(COC(=O)c1cccc(O)c1)c1ccccc1	/	/	0.2	3.5	/
COC(C[C@@H]1O[C@@H]1C(=O)COCc1ccccc1)OC	/	/	3.5	/	-10.6%
CC1CCC(=NNC(=O)Cc2ccccc2)CC1 (stereo not drawn)	-2.0	4.3	1.4	-0.9	1.5%
O=C(NCc1ccco1)c1cc2sccc2n1Cc1ccc(F)cc1	-47.2	-7.2	8.5	9.7	14.0%
COc1ccccc1N1CCN(C(=O)c2sc3nc(-c4ccc(F)cc4)cn3c2C)CC1	-24.4	-8.2	9.0	11.9	/	Arbovirus inh repeat=-29.5

Next results follow:
SMILES	YopH PTP inh	Arbovirus inh	RecA splice inh	Mtb bLac sens	Mtb growth	others
O=C(NCC1CCCO1)c1nn2c(C(F)(F)F)cc(-c3cc(Br)cs3)nc2c1Br (stereo not drawn)	/	/	-2.7	4.8	/
Cc1ccc(SC(C)C(=O)NCCC2=CCCCC2)cc1 (stereo not drawn)	-19.8	7.0	1.8	13.9	-0.6%
CCOC(=O)c1ccc(N2C(=O)CC(N(C)CCc3ccc(OC)c(OC)c3)C2=O)cc1 (stereo not drawn)	10.8	7.2	2.4	-11.3	-2.7%
O=C(c1ccc(F)cc1)C1CCN(Cc2ccc(F)cc2)CC1	/	/	0.1	-1.4	/
COc1ccc(OC)c(S(=O)(=O)N2CCC(C(=O)NCCC3=CCCCC3)CC2)c1	-23.6	-7.7	3.9	1.8	6.4%
COc1ccc(C2CC(c3cc(OC)ccc3OC)n3nnnc3N2)cc1 (stereo not drawn)	-42.9	11.2	0.6	3.9	-5.6%
O=C(Cc1ccccc1)N/N=C/c1cccn1-c1ccc([N+](=O)[O-])cc1	13.9	-0.9	0.7	0.3	2.5%
Cc1cc(S(=O)(=O)Nc2cc(C)c(O)c(C)c2)c(C)s1	-29.6	-37.8	-9.1	-5.7	-2.3%
CC(=O)NCC1=C(NC(C)=O)C2CC1C(C)(C)C2C (stereo not drawn)	-10.9	31.0*	4.9	-0.4	/

Two entries picked at random from those above, as already listed:
SMILES	YopH PTP inh	Arbovirus inh	RecA splice inh	Mtb bLac sens	Mtb growth	others
O=C(Cc1ccccc1)N/N=C/c1cccn1-c1ccc([N+](=O)[O-])cc1	13.9	-0.9	0.7	0.3	2.5%
O=C(c1ccc(F)cc1)C1CCN(Cc2ccc(F)cc2)CC1	/	/	0.1	-1.4	/
